# Source: PubChem (Sanford-Burnham Center for Chemical Genomics)
# SIAH1 antagonists: blockers of Siah-1 interaction with plectin peptide – biochemical, fluorescence polarization, rhodamine-plectin, uHTS, primary screen (AID 1817); one-dose displacement, % at 20 µM; IC50 in µM for titrated hits; 290,000 tested, 0.02% active; Siah-1 / rhodamine-plectin peptide fluorescence polarization; higher % means a stronger effect;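 active = displacement of at least 50% at 20 µM, with a fluorescence ratio check between 0.3 and a set limit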;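 also: plate controls were Siah plus tracer with DMSO for no effect and tracer alone without Siah for full effect; strong numbers were not always called active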
# KOR beta-arrestin: KOR agonists, beta-arrestin recruitment, primary screen, cell-based, luminescence, uHTS (AID 1777). one-dose activation, % at 10 µM; EC50 in µM for titrated hits. KOR beta-arrestin recruitment, luminescence; higher % means a stronger effect. 280,000 tested, 0.02% active; in the data active = activation above about 50%, passing the limit was not always enough; also: a part of the inactive calls stands beside numbers as strong as those of hits
# GPR55 LPI antagonism: inhibition of LPI-stimulated GPR55 beta-arrestin translocation – imaging, U2OS, beta-arrestin-GFP, LPI agonist, primary screen (AID 2013); U2OS GPR55 beta-arrestin-GFP translocation imaging, LPI antagonism; higher % means a stronger effect; inhibition, % at 10 µM, or IC50 in µM where a hit was titrated; 290,000 tested, 0.13% active;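 active = spots per cell inhibited over 60%, with over 100 cells counted and total cytoplasm intensity under 500,000; inconclusive = wells with under 100 cells, flagged as likely toxic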;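 also: U2OS cells stably carrying GPR55 and arrestin-GFP stimulated by 5 µM LPI near EC80; imaged beta-arrestin-GFP aggregate spots per cell after agonist stimulation; plate controls were LPI-stimulated DMSO wells for no effect and DMSO wells without LPI for full effect; some results filed as inactive read as strong as hits; confirmed hits need IC50 under 10 µM and bright autofluorescent wells are also inconclusive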
# HIV fusion peptide: inhibitors of HIV fusion peptide binding, primary screen, biochemical, uHTS, fluorescence dequenching (AID 1986); inhibition, % at 20 µM; hits with a dose series show IC50 in µM; cell-free peptide binding, fluorescence dequenching, 30 min; higher % means a stronger effect; 290,000 tested, 0.3% active; in the data active = inhibition mostly above about 52%, no sharp cut-off; inactive = mostly below about 76%; also: some results filed as inactive read as strong as hits
# GPR35 antagonists: inhibition of zaprinast-stimulated GPR35 beta-arrestin translocation – imaging, U2OS, beta-arrestin-GFP, zaprinast agonist, primary screen (AID 2058); U2OS GPR35 beta-arrestin-GFP translocation imaging, zaprinast antagonism; higher % means a stronger effect; inhibition, % at 10 µM, or IC50 in µM where a hit was titrated; 290,000 tested, 0.052% active;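 active = inhibition of at least 50% with at least 30 cells and total cytoplasm GFP at most 10,000,000; inconclusive = under 30 cells or total GFP of 10,000,000 plus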
# GPR55 beta-arrestin: GPR55 agonists via beta-arrestin recruitment, primary screen, imaging, U2OS cells, beta-arrestin-GFP redistribution (AID 1961) | U2OS GPR55 beta-arrestin-GFP redistribution imaging; higher % means a stronger effect | one-dose activation, % at 10 µM; EC50 in µM for titrated hits | 290,000 tested, 0.048% active;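 active = activation above 40% with more than 50 cells counted in the well; inconclusive = wells holding fewer than 50 cells, flagged as toxic or sparse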;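 also: U2OS osteosarcoma cells stably expressing GPR55 and beta-arrestin-GFP; plate controls were DMSO negative control for no effect and LPI positive control for full effect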
# AID2073: inhibitors of Mint1-CaV2.2 protein interaction, biochemical, HTRF (AID 2073); HTRF protein-protein interaction, Mint1-CaV2.2; higher % means a stronger effect; one-dose inhibition, % at 20 µM; IC50 in µM for titrated hits; 290,000 tested, 0.19% active; in the data active = inhibition mostly above about 51%, no sharp cut-off; inconclusive = no clear call, values can overlap the other calls; inactive = mostly below about 53%; also: some results filed as inactive read as strong as hits
# * hit, by the source's call; u = inconclusive; & = joins results of further samples. A portion of the library; the hit share may differ from the screen's.
# Start of the listing, in advance (13 entries):
entry	structure	SIAH1 antagonists	KOR beta-arrestin	GPR55 LPI antagonism	HIV fusion peptide
1	Cc1cccc(Oc2ncnc3onc(C)c23)c1C	0%	-0.9%	-4%	-2.0%
2	CCCS(=O)(=O)N1CCCC(C(=O)N2CCOCC2)C1 (configuration not stated)	2%	4.7%	5%	1.1%
3	COCc1nnc(NC(=O)c2ccc(S(=O)(=O)N3CCCCCC3)cc2)o1	0%	-1.2%	13%	2.8%
4	Cc1ccc(S(=O)(=O)/N=C(\c2ccc(Cl)cc2)N2CCOCC2)cc1	-2%	2.1%	-18%	-2.1%
5	O=C(CN(Cc1ccco1)C(=O)c1ccccc1)Nc1ccc(Cl)c(Cl)c1	-2%	12%	1%	5.0%
6	CCCC(=O)NC(Nc1ccccc1OC)C(Cl)(Cl)Cl (configuration not stated)	-1%	-0.9%	10%	1.7%
7	CN(C)c1ncc(S(=O)(=O)c2ccccc2)c(-c2ccc(Cl)cc2Cl)n1	5%	-1.6%	14%	1.5%
8	CC(=O)N(c1ccc2oc(=O)sc2c1)S(=O)(=O)c1cccs1	-1%	4.5%	-1%	7.9%
9	c1ccc(-c2csc(N3CCc4ccccc4C3)n2)cc1	3%	6.3%	-4%	-3.0%
10	Cn1c(CCN2CCCCC2)nc2cc(NS(=O)(=O)c3ccccc3)ccc21	9%	7.3%	8%	0.0%
11	O=C(c1ccco1)N1CCN(C(=O)c2ccc(COc3ccc4c(c3)CCC4)o2)CC1	-6%	15%	10%	0.9%
12	CCN1CCN(C(=O)CS(=O)Cc2nc(-c3ccc(OC)cc3)oc2C)CC1 (configuration not stated)	2%	0.7%	-3%	1.8%
13	Cn1cnnc1SCC(=O)N1N=C2/C(=C/c3ccco3)CCCC2C1c1ccco1 (configuration not stated)	-3%	2.6%	21%	-0.7%

entry	GPR35 antagonists	GPR55 beta-arrestin	AID2073
1	-19%	0.0%	2%
2	4%	0.0%	13%
3	-4%	-0.1%	1%
4	8%	0.0%	-10%
5	0%	0.0%	u
6	17%	0.5%	7%
7	3%	0.4%	6%
8	-1%	0.0%	10%
9	5%	0.9%	-22%
10	4%	0.3%	-10%
11	16%	-0.1%	-2%
12	-1%	-0.2%	7%
13	6%	0.0%	-7%

# The whole of this part (from the top)
entry	structure	SIAH1 antagonists	KOR beta-arrestin	GPR55 LPI antagonism	HIV fusion peptide
1	Cc1cccc(Oc2ncnc3onc(C)c23)c1C	0%	-0.9%	-4%	-2.0%
2	CCCS(=O)(=O)N1CCCC(C(=O)N2CCOCC2)C1 (configuration not stated)	2%	4.7%	5%	1.1%
3	COCc1nnc(NC(=O)c2ccc(S(=O)(=O)N3CCCCCC3)cc2)o1	0%	-1.2%	13%	2.8%
4	Cc1ccc(S(=O)(=O)/N=C(\c2ccc(Cl)cc2)N2CCOCC2)cc1	-2%	2.1%	-18%	-2.1%
5	O=C(CN(Cc1ccco1)C(=O)c1ccccc1)Nc1ccc(Cl)c(Cl)c1	-2%	12%	1%	5.0%
6	CCCC(=O)NC(Nc1ccccc1OC)C(Cl)(Cl)Cl (configuration not stated)	-1%	-0.9%	10%	1.7%
7	CN(C)c1ncc(S(=O)(=O)c2ccccc2)c(-c2ccc(Cl)cc2Cl)n1	5%	-1.6%	14%	1.5%
8	CC(=O)N(c1ccc2oc(=O)sc2c1)S(=O)(=O)c1cccs1	-1%	4.5%	-1%	7.9%
9	c1ccc(-c2csc(N3CCc4ccccc4C3)n2)cc1	3%	6.3%	-4%	-3.0%
10	Cn1c(CCN2CCCCC2)nc2cc(NS(=O)(=O)c3ccccc3)ccc21	9%	7.3%	8%	0.0%
11	O=C(c1ccco1)N1CCN(C(=O)c2ccc(COc3ccc4c(c3)CCC4)o2)CC1	-6%	15%	10%	0.9%
12	CCN1CCN(C(=O)CS(=O)Cc2nc(-c3ccc(OC)cc3)oc2C)CC1 (configuration not stated)	2%	0.7%	-3%	1.8%

entry	GPR35 antagonists	GPR55 beta-arrestin	AID2073
1	-19%	0.0%	2%
2	4%	0.0%	13%
3	-4%	-0.1%	1%
4	8%	0.0%	-10%
5	0%	0.0%	u
6	17%	0.5%	7%
7	3%	0.4%	6%
8	-1%	0.0%	10%
9	5%	0.9%	-22%
10	4%	0.3%	-10%
11	16%	-0.1%	-2%
12	-1%	-0.2%	7%

# Reprinted at random: two compounds from above
entry	structure	SIAH1 antagonists	KOR beta-arrestin	GPR55 LPI antagonism	HIV fusion peptide
12	CCN1CCN(C(=O)CS(=O)Cc2nc(-c3ccc(OC)cc3)oc2C)CC1 (configuration not stated)	2%	0.7%	-3%	1.8%
8	CC(=O)N(c1ccc2oc(=O)sc2c1)S(=O)(=O)c1cccs1	-1%	4.5%	-1%	7.9%

entry	GPR35 antagonists	GPR55 beta-arrestin	AID2073
12	-1%	-0.2%	7%
8	-1%	0.0%	10%

# The list goes on.
entry	structure	SIAH1 antagonists	KOR beta-arrestin	GPR55 LPI antagonism	HIV fusion peptide
13	Cn1cnnc1SCC(=O)N1N=C2/C(=C/c3ccco3)CCCC2C1c1ccco1 (configuration not stated)	-3%	2.6%	21%	-0.7%
14	CCCCNC(=O)C(CC)Sc1nc2sc(C(=O)OC)c(C)c2c(=O)n1N (configuration not stated)	5%	2.7%	18%	0.2%
15	CCCOc1ccc(-c2nc(C#N)c(NCCCn3ccnc3)o2)cc1	-1%	4.6%	13%	8.1%
16	C=CCn1c(Cc2ccc(OC)cc2)nnc1SCC(=O)c1cccc([N+](=O)[O-])c1	-3%	-1.2%	-1%	-1.4%
17	CS(=O)(=O)N(CC(=O)N/N=C/c1cccs1)c1cccc(Cl)c1Cl	3%	1.5%	14%	-2.2%
18	CCN(CC)c1nc(Nc2ccccc2)nc(Oc2ccc(C(=O)OC)cc2)n1	-1%	-3.8%	9%	-3.3%
19	O=C1NC(=O)C(c2ccccc2)(c2ccccc2)N1	10%&0%&10%	-2.4%&-4.1%&-1.0%	-2%&7%&14%	0.4%&1.3%&0.7%
20	COC(=O)CSc1nnc2n(C3CCCCC3)c(=O)c3c4c(sc3n12)CCCC4	3%	0.8%	59%	-2.6%
21	CC1=NN(c2ccc(C)cc2C)C(=O)C1C(c1ccccc1)C1C(=O)N(c2ccc(C)cc2C)N=C1C (configuration not stated)	0%	0.1%	20%	5.0%
22	O=C(O)c1c[nH]c2cc(C(F)(F)F)ccc2c1=O	2%	0.4%	5%	25%
23	O=C(Nc1cnc2ccccn2c1=O)c1ccc(Cl)cc1	2%	8.5%	10%	-2.5%
24	CCc1nnc(NC=C2C(=O)OC(C)(C)OC2=O)s1	-1%	2.3%	20%	2.9%

entry	GPR35 antagonists	GPR55 beta-arrestin	AID2073
13	6%	0.0%	-7%
14	14%	-0.1%	13%
15	2%	0.2%	7%
16	18%	-0.1%	-22%
17	8%	-0.1%	-8%
18	2%	-0.2%	2%
19	10%&-14%&-7%	-0.1%&-0.1%&0.1%	-3%&-3%&7%
20	-6%	-0.1%	-4%
21	1%	0.2%	8%
22	5%	0.2%	-4%
23	-1%	-0.2%	5%
24	12%	-0.1%	16%

# More results
entry	structure	SIAH1 antagonists	KOR beta-arrestin	GPR55 LPI antagonism	HIV fusion peptide
25	O=C(CN1C(=O)C2C3C=CC(C3)C2C1=O)Nc1cccc2c1CCCC2 (configuration not stated)	-2%	4.7%	10%	-2.0%
26	COc1cccc(C2=NOC(C(=O)NC(C)C)C2)c1 (configuration not stated)	0%	-1.7%	12%	10%
27	COc1ccccc1NC(=O)CSc1nccc(=O)[nH]1	4%	-1.0%	20%	1.9%
28	Cc1nnc(NCc2ccco2)s1	2%	-1.3%	-4%	2.9%
29	COc1ccc(N2CCN(c3oc(Cc4ccccc4)nc3C#N)CC2)cc1	3%	3.5%	-14%	-1.5%
30	Cc1ccc(Oc2nnc(-c3ccccc3)cc2C#N)cc1	-2%	-0.6%	-16%	-1.9%
31	Cc1cccc(C(=O)NC2CCN(C(=S)NCc3ccco3)CC2)c1	1%	1.4%	17%	-1.4%
32	Cc1cccc(CSc2ncc(CO)n2C)c1	3%	1.9%	-4%	1.5%
33	S=c1[nH]nc(C23CC4CC(CC(C4)C2)C3)n1Cc1ccco1	-1%	1.8%	15%	0.4%

entry	GPR35 antagonists	GPR55 beta-arrestin	AID2073
25	8%	-2.3%	-6%
26	-3%	-0.2%	-3%
27	2%	-0.2%	-3%
28	-8%	0.5%	14%
29	-3%	-0.2%	-4%
30	12%	0.0%	10%
31	-1%	0.0%	-8%
32	12%	-0.1%	-1%
33	0%	-0.1%	-1%
